Bioassay records: PubChem BioAssay, several laboratories
E coli growth: E. coli growth inhibition, primary screen, OD600; Escherichia coli growth, 23 h; stronger effect = lower value; OD600 absorbance (concentration not given with the values); hit rate 0.21% among 330,000; AID 1053175, 2014;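 active = OD600 absorbance below the run mean of sample wells minus 3.6 SD, in any replicate, cut at about 0.56 in these data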;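 also: stock transfer was 300 nL into about 60 µL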
HNF4A DNA FP: change in binding of human HNF4A to DNA, primary screen, biochemical, fluorescence polarization, FITC-DNA. hit rate 0.3% among 360,000. Hepatocyte nuclear factor 4-alpha (Homo sapiens), P41235. AID 1224865, 2016. 1 h. activity change, % at 10 µM; in the data active = activity change above about 30%, passing the limit was not always enough;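 also: controls were the assay level and a saturating level of protein; the project sought stronger binding though the title names inhibitors; some compounds called inactive have numbers as strong as hits; positive values seem to mean higher polarization but the record does not say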
LANA-H2A inh: blockers of LANA interaction with H2A/H2B – biochemical, FP readout, HTS, primary screen | AID 2629, 2010 | inhibition, % (test concentration not listed) | hit rate 0.6% among 320,000 | cell-free LANA-H2A/H2B peptide, fluorescence polarization | Protein LANA1 (Human herpesvirus 8 type P (isolate GK18)), Q9QR71; in the data active = inhibition mostly above about 10%, no sharp cut-off; inactive = mostly below about 6.7%;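 also: stock transfer was 7.5 nL into about 10 µL; 0% = median of vehicle wells and 100% = median of positive control wells; one replicate is shown; the record names a cut of 25% in any replicate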
UCH37 DUB inh: inhibitors of human UCH37 deubiquitinase, primary screen, biochemical, Ub-AMC cleavage, fluorescence. inhibition, % (no concentration beside the values). hit rate 0.33% among 330,000. Ubiquitin carboxyl-terminal hydrolase isozyme L5 (Homo sapiens), Q9Y5K5. purified proteasome/UCH37;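 active = mean of two replicates above 20%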;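 also: 0% = compound-free wells with enzyme and 100% = wells lacking proteasome; stock transfer was 100 nL into about 20 µL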
Target sequence (Q9Y5K5 whole entry, looked up): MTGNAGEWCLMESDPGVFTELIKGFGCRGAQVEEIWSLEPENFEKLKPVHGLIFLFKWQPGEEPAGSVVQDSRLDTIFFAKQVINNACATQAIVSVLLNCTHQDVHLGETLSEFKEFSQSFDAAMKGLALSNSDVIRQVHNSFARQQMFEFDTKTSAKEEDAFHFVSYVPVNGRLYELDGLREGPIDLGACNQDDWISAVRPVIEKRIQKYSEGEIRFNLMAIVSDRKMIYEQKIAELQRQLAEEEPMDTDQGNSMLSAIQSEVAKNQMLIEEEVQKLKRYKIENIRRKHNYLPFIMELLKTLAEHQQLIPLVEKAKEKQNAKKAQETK
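Signal – fluorescence, ex 355 nm, em 460 nm · System – Proteasome-bound UCH37 · Input – 0.15 nM proteasome as dispensed · Timing – 30 min preincubation with enzyme, 25 min cleavage at room temperature · Read-out basis – percent inhibition of cleavage signal versus uninhibited and no-proteasome wells · Medium – Tris-HCl pH 7.4 with ATP-MgCl2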
Vif TR-FRET: inhibitors of Vif binding to APOBEC3G peptide, primary screen, biochemical, TR-FRET, GST-Vif 1-94, biotin-A3G peptide, dose response retest (AID 1117319); Virion infectivity factor (Human immunodeficiency virus type 1 group M subtype B (isolate …; TR-FRET GST-Vif / biotin-A3G peptide binding; higher % means a stronger effect; test concentration not given here; strong numbers were not always called active; inhibition, %, or IC50 in µM where a hit was titrated; hit rate 0.57% among 260,000;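 active = above the screen mean plus three standard deviations and confirmed in dose response; inconclusive = results disagree or hit not tested in dose response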;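 also: Vif residues 1-94 fused to GST binding biotinylated APOBEC3G peptide 110-148; 0% = full assay without inhibitor and 100% = GST in place of GST-Vif; retest series ran down from 100 µM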
Bfl-1 A1 inh: caspase 3/7 activation in MEF A1-2A-BIM cells, primary screen, A1 inhibitor project, cell-based, luminescence, HTS; AID 2462, 2010; caspase activation, % (concentration not given with the values); hit rate 0.066% among 330,000; Caspase-Glo 3/7 luminescence, 3 h; percent of clofoctol response, vehicle zero;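 active = over half of replicate activation scores above 10%, or exactly half above 10 with the replicate mean above 10; inconclusive = replicate mean below 10 yet half the replicates above 10; inactive = over half of replicates below 10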;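 also: wells of about 30 µL received 50 nL stock; many hits fall short of the cut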
B2AR ag: beta2AR agonists driving receptor internalization, primary screen, cell-based, FAP fluorogen, flow cytometry; Beta-2 adrenergic receptor (Homo sapiens), P07550; hit rate 0.43% among 340,000; AID 504454, 2011; Am2.2-beta2AR cells; reference of the scale not given here; response, % (no concentration beside the values);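 active = response above a set limit, near 3 SD of response in nonfluorescent compounds, cut at about 42% in these data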;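 also: stock transfer was 100 nL into about 11 µL; a reference agonist was the positive control; negative values mostly stem from fluorescent compounds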
Target sequence (P07550 whole entry, looked up): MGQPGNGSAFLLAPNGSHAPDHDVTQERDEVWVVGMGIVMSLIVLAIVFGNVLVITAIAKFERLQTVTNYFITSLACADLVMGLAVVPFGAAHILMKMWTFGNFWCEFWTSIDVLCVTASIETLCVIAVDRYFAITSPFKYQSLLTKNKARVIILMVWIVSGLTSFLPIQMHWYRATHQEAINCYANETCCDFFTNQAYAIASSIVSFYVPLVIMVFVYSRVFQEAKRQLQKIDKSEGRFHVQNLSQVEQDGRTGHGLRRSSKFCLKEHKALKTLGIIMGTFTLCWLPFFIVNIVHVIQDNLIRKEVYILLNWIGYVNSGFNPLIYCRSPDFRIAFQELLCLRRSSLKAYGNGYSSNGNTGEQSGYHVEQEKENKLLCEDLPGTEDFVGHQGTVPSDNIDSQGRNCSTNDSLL
An asterisk follows results filed as active; ? = inconclusive; / = not tested or not shown; & = joins results of further samples.

SMILES	E coli growth	HNF4A DNA FP	LANA-H2A inh	UCH37 DUB inh	Vif TR-FRET	Bfl-1 A1 inh	B2AR ag
CCN(CC)S(=O)(=O)c1cccc(C(=O)N[C@H](C(=O)Nc2nc3ccc(F)cc3s2)C(C)C)c1	0.73	-1.3	0.9	1.6	-4%	0.0	10
CC(C)(C)NC(=O)C1CC(=O)OC1(C)C (stereo unspecified)	0.75	8.4	-6.3	-0.1	2%	0.2	-2
CC(C)=CCN1CCN(CCC2=C(C)CCCC2(C)C)CC1CCO (stereo unspecified)	0.68	4.7	-2.1	3.4	8%	1.1	-1
COc1ccc(NC(=O)C2CCN(S(C)(=O)=O)CC2)c(OC)c1	0.64	0.2	8.0	2.7	-1%	-0.8	1
Cc1cc(-c2nnnn2-c2ccc(F)cc2)no1	0.68	1.4	0.5	7.4	6%	2.5	0
Cc1ccc(S(=O)(=O)N2CC(O)CC2C(=O)OCC(=O)c2ccccc2Cl)cc1C (stereo unspecified)	0.74	-1.0	/	2.2	-2%	0.0	-3
O=C(c1cc(-c2cccc(Cl)c2)on1)N1CCc2ccccc2C1	0.71	2.2	-0.3	-0.6	/	-0.2	9
CN(CCCNC(=O)CN1C(=O)CC(C)(C)S(=O)(=O)c2ccccc21)C1CCCCC1	0.69	-2.9	1.1	5.5	?	-0.7	-2
CC(CCc1ccccc1)NC(=O)c1ccc(Cl)nc1 (stereo unspecified)	0.71	-0.1	0.0	5.6	-3%	-0.3	-11
O=S(=O)(c1ccccc1)N1CCC2(CC1)CO2	0.7	-2.6	0.2	4.8	7%	0.3	4
Cc1nn(C(=O)c2ccc3c(c2)OCO3)c(N)c1-c1ccccc1	0.65	-1.5	0.7	2.8	-2%	-0.8	-3
Cc1ccc(S(=O)(=O)CCC(=O)Nc2ccc(Br)cc2)cc1	0.66	2.7	0.6	0.1	22%	-0.2	-3
CC(C)CNC(=S)N1CCN(Cc2ccc3c(c2)OCO3)CC1	0.67	5.7	-6.1	1.4	-1%	-1.2	5
CC(=O)c1nnn(-c2cccc([N+](=O)[O-])c2)c1C	0.67	-0.7	8.3	-1.3	/	0.4	3
COc1ccccc1NS(=O)(=O)c1ccc2ccccc2c1	0.64	0.4	-5.3	4.1	0%	0.0	-4
Cc1cc(C)nc(Sc2ccc3nnnn3n2)n1	0.66	-1.0	-2.9	1.3	12%	0.2	3
Cc1ccc(OCCNS(=O)(=O)c2ccc(N3CCCC3=O)cc2)cc1	0.77	0.0	-1.3	4.2	/	-0.3	-3
COc1ccc(C(=O)Nc2nc(-c3ccc(S(=O)(=O)N4CCOCC4)cc3)cs2)cc1	0.67	0.4	0.9	3.9	-109%	-0.6	37
Cc1ccc(C(=O)NC(=S)NNS(=O)(=O)c2ccc(C)cc2)cc1	0.63	1.9	-3.0	5.7	/	1.2	1
CCOC(=O)C(C)Sc1nnc(NC(=O)c2ccc3c(c2)OCO3)s1 (stereo unspecified)	0.68	-1.3	5.0	2.1	8%	-0.8	7
NNC(=O)C(Cc1cnc[nH]1)NC(=O)OCc1ccccc1 (stereo unspecified)	0.63	-1.0	-1.1	5.0	-15%	0.0	6
Nc1nnc(CSCc2cccc(Br)c2)s1	0.7	-2.0	-1.6	-2.4	/	-1.4	-1
NC(=O)COc1ccc2oc(=O)cc(-c3cc4ccccc4o3)c2c1	0.71	-2.6	2.4	-6.3	-1%	-2.3	4
O=C(OCCN=C1NS(=O)(=O)c2ccccc21)c1cccs1	0.69	-0.4	0.9	2.7	4%	0.6	-2
CC(=O)Nc1ccc(-c2csc(NC=C3C(=O)OC(C)(C)OC3=O)n2)cc1	/	-1.5	-2.0	/	26%	-0.6	2
CCOC(=O)COc1ccccc1/C=N/O	/	-5.9	1.6	/	/	0.4	8
COC(=O)c1ccc(CSc2ccc3nnc(-c4ccc(OC)cc4)n3n2)o1	0.67	/	2.5	-1.0	1%	1.0	/
CS/C(=N\S(=O)(=O)c1cccs1)Nc1ccc(Cl)cc1	0.67	1.0	2.3	-1.8	4%	1.2	2
COCCCN1C(=O)C(=O)/C(=C(/O)c2ccc3c(c2)OCCO3)C1c1ccc(C(=O)OC)cc1 (stereo unspecified)	0.79	0.6	1.9	1.5	0%	0.4	-1
Cc1ccc(NC(=O)CC(=O)c2ccccc2)cc1C	0.66	-2.3	1.6	2.7	/	-1.6	5
O=c1cc(N2CCOCC2)c2ccccc2o1	0.67	-6.0	9.5	1.6	?	0.5	-4
C#C[C@]1(O)CC[C@H]2[C@@H]3CCc4cc(O)ccc4[C@H]3CC[C@@]21C	/	-4.8	-14	2.0	?	-1.1	2
COc1ccc(NC(=O)NNC(=O)COc2ccc([N+](=O)[O-])c(C)c2)cc1OC	0.7	-1.8	-3.6	1.5	5%	0.9	-1
CCn1c(SCC(=O)N2CCN(c3ccccc3)CC2)nnc1-c1ccncc1	0.7	/	/	-1.1	1%	/	/
COC(=O)C1C2CCCCC1C(=O)O2 (stereo unspecified)	/	1.0	/	/	-3%	/	-11
Cc1cc(C)c2nc(N3CCCC(C(=O)NC4CCCC4)C3)sc2c1 (stereo unspecified)	0.75	4.4	-0.2	6.4	-5%	0.3	2
CNC(=S)N(Cc1ccc(OC)cc1)Cc1cc2cccc(C)c2[nH]c1=O	0.7	-0.9	1.1	0.7	-12%	-0.5	4
O=C(CN1C(=O)CC(c2ccccc2)=Nc2ccccc21)NC1CCCCC1	0.71	5.1	2.3	1.1	3%	-0.4	-22
CCN(CC)C(=O)CSc1nc(O)cc(=O)n1C	0.69	-1.8	1.4	6.5	22%	-0.6	-1
CCOc1ccc(NC(=O)N(CCN(C)C)C(C)c2ccncc2)cc1 (stereo unspecified)	0.73	-1.8	0.7	3.4	-1%	-0.1	-3
COc1ccc(OC)c(C(=O)NC(CC(N)=O)c2ccc(NCCOc3ccccc3)c([N+](=O)[O-])c2)c1 (stereo unspecified)	0.68	0.8	0.5	0.8	/	-0.2	1
Cc1ccccc1-c1nc2ccccc2c(=O)n1C1CCS(=O)(=O)C1 (stereo unspecified)	0.68	2.5	3.4	-0.2	3%	0.6	-7
COc1cc(C(C2C(=O)CC(C)(C)CC2=O)C2C(=O)CC(C)(C)CC2=O)ccc1OC(C)=O	0.68	1.1	-3.1	2.1	/	0.5	0
O=C(CNC(=O)c1ccco1)NCC(=O)OCc1c(F)cccc1Cl	0.72	-0.2	-2.4	1.5	/	-0.3	-7
COc1ccc(OC)c(NC(=O)COC(=O)Cc2ccc(Br)cc2)c1	0.66	3.8	-4.9	4.8	/	-0.7	-5
CC(CC(=O)N(C)c1c(N)n(Cc2ccccc2)c(=O)[nH]c1=O)c1ccccc1 (stereo unspecified)	0.67	-6.3	-2.3	-1.1	-3%	0.5	-2
Cc1ccccc1OCC(=O)NNC(=O)c1ccoc1C	0.67	-2.3	-1.4	-1.2	1%	-0.9	-6
Clc1ccc(CN2CCCCCCC2)cc1	0.67	5.1	0.7	4.3	/	0.2	-3
O=C(CSc1nnc(-c2ccccc2F)n1C1CC1)Nc1ccc2[nH]c(=O)[nH]c2c1	0.7	2.8	0.1	4.2	-5%	1.6	-4
COC(=O)c1cc2oc3ccccc3c2n1Cc1ccccn1	0.68	0.0	6.1	5.9	-5%	2.1	0
CCn1c(COc2ccccc2C)nc2ccccc21	/	-0.1	0.1	3.4	9%	-3.9	-6
Cc1cccc(Nc2nc3c(s2)CCCC3)c1	0.65	-1.5	-5.4	1.0	4%	-5.2	2
Oc1c(C=C2N=c3ccccc3=N2)sc(=S)n1C1CCCCC1	0.68&0.68	1.3&0.6	-4.4&-0.6	11&2.6	/	-0.3&0.6	-1&-2
COC(=O)C1(C)CCc2cc(OC)ccc2C1=O (stereo unspecified)	0.69	-1.7	-2.2	0.3	5%	0.0	2
O=C(CCCN=C1NS(=O)(=O)c2ccccc21)OCC(=O)c1ccc(F)cc1	0.63	-0.4	2.3	0.2	0%	0.3	-2
COc1ccc(N2CC(C(=O)Nc3ccc(S(=O)(=O)Nc4nccs4)cc3)CC2=O)c(OC)c1 (stereo unspecified)	0.69	1.9	-0.2	3.2	11%	1.2	-2
Cc1cccc(OCC(=O)N/N=C/c2sc(=O)n(Cc3cccc(C(=O)O)c3)c2Cl)c1	/	-1.5	2.6	/	-3%	?	8
C[C@H](CO)N1C[C@H](C)[C@@H](CN(C)S(=O)(=O)c2ccc(F)cc2)Oc2ccc(NC(=O)Cc3cn(C)c4ccccc34)cc2C1=O	0.74	4.3	-3.5	-1.4	/	0.0	6
CN(C(=O)c1ccc(NC(=O)Cc2ccc(NC(=O)C3CCCN(C(=O)C4CC4)C3)cc2)cc1)C1CC1 (stereo unspecified)	0.65	-2.8	-1.7	3.2	/	1.0	-17
O=C1CC(=C(c2ccccc2)c2ccccc2)C(=O)N1CCCN1CCN(c2cccc(Cl)c2)CC1	0.75	-0.5	0.0	-0.7	?	0.2	-6
New compounds follow.
SMILES	E coli growth	HNF4A DNA FP	LANA-H2A inh	UCH37 DUB inh	Vif TR-FRET	Bfl-1 A1 inh	B2AR ag
COc1ccc(C2=NS(=O)(=O)N(C)C(C(=O)NCc3ccco3)=C2)cc1OC	0.66	1.2	14	3.2	/	1.2	35
CC(=O)c1cnc2ncnn2c1C	0.71	1.9	-4.6	3.6	-3%	-2.2	-11
CCCNC(=O)C1(CC2CC(c3ccccc3)=NO2)CCN(C(=O)c2ccccc2)CC1 (stereo unspecified)	0.67	-2.6	-0.3	-1.0	/	-0.1	-10
COc1ccc(OC)c(CN(CCN2CCOCC2)C(=O)Nc2ccccc2)c1	0.72	0.2	3.8	3.4	/	-1.2	-2
CCc1c(C)n([O-])c2c([n+]1=O)CCC2	0.79	0.1	-1.4	-1.9	6%	-0.5	10
CC(C)COc1ccc(C(=O)N/N=C/c2ccoc2)cc1	/	-6.7	-2.5	/	/	-0.6	-5
COc1ccc(S(=O)(=O)CCC(=O)NCCc2ccc(Cl)cc2)cc1	0.7	-2.5	-0.4	2.6	-1%	0.6	-14
CCOC(=O)N1C2C=CC(C2)N1C(=O)OCC	0.67	8.0	/	0.9	-5%	/	0
COc1ccc(S(=O)(=O)NCC(=O)N(CC(=O)NCc2ccccc2)Cc2ccco2)cc1	0.66	3.2	-0.3	3.4	/	0.5	1
COC(=O)C1C(=O)CC(C)(O)C(C(=O)OC)C1/C=C/c1ccccc1 (stereo unspecified)	/	1.8	6.7	2.4	1%	1.2	-4
CC(NC(=S)Nc1ccc(OC(F)F)cc1OC(F)F)C(C)(C)C (stereo unspecified)	0.69	3.5	/	3.5	9%	0.1	0
CCCOc1ccc(/C=C/C(=O)Nc2ccc([N+](=O)[O-])cc2)cc1	0.71	-1.5	2.4	9.1	-1%	-0.1	9
Cc1ccc(CN(C)C(=O)COC(=O)CSc2ccc(C(N)=O)cc2[N+](=O)[O-])cc1	/	-0.3	-5.9	/	/	1.3	-1

The order is random. About 2.1% of those tested had a hit in this group.
